# Source: PubChem BioAssay
# YopH PTP inh: YopH tyrosine phosphatase inhibitors, primary screen, biochemical, fluorescence Ex485/Em525; inhibition, %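 (about 10 µM by stock and volumes)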; 140,000 tested, 0.16% active;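 active = inhibition of 50% or more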;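 also: controls were vehicle for no effect and minimum signal wells for full effect; inactives centre near -20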
# Mtb H37Rv: M. tuberculosis H37Rv growth inhibitors, H37Rv strain (AID 1626). M. tuberculosis H37Rv growth inhibition; higher % means a stronger effect. inhibition, % at 10 µM; hits with a dose series show IC50 in µM. 220,000 tested, 0.95% active;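 active = confirmed in a dose series; inconclusive = inhibition above 80% but not taken into the dose series; inactive = below 80% or under 30% at every dose of the series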;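 also: bacteria incubated seven days before Alamar blue readout; 0% = bacteria only wells and 100% = bacteria with antibiotic wells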
# Mtb bLac sens: beta-lactam sensitization of Mtb H37Rv, H37Rv | M. tuberculosis H37Rv growth with meropenem, percent inhibition; hits of this screen are not shown here | 330,000 tested, 0.27% active | inhibition, % at 25 µM | AID 434955, 2010;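 active = about 74% or more and at least 40 points above the plate without the antibiotic, then above 30% in a dose series; inconclusive = first-round hits that could not be retested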;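 also: growth measured after seven days incubation then overnight dye step; 0% = bacteria only wells and 100% = bacteria with antibiotic; twin plates without the antibiotic show which effects depend on it; some results filed as inactive read as strong as hits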
# Arbovirus anti: antivirals against arbovirus infection, primary screen, cell-based, full library, 10K replicate subset; arbovirus infection cell-based antiviral screen; inhibition, % at 10 µM; 200,000 tested, 0.37% active; AID 1251, 2008;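 active = inhibition from about 30%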;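 also: bluetongue infection of BSR cells; cell survival read as ATP light after 72 h; 0% = infected wells without compound and 100% = uninfected wells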
# RecA splice inh: Mtb RecA intein splicing inhibitors, primary screen, biochemical, fluorescence, HTS | cell-free RecA intein splicing | inhibition, %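 (about 9 µM by stock and volumes)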 | 290,000 tested, 0.75% active; in the data active = inhibition above about 30%; inconclusive = no clear call, values can overlap the other calls;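 also: 0% = vehicle wells and 100% = reference inhibitor control wells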
# Target sequence (P9WHJ3 whole entry, looked up, canonical isoform): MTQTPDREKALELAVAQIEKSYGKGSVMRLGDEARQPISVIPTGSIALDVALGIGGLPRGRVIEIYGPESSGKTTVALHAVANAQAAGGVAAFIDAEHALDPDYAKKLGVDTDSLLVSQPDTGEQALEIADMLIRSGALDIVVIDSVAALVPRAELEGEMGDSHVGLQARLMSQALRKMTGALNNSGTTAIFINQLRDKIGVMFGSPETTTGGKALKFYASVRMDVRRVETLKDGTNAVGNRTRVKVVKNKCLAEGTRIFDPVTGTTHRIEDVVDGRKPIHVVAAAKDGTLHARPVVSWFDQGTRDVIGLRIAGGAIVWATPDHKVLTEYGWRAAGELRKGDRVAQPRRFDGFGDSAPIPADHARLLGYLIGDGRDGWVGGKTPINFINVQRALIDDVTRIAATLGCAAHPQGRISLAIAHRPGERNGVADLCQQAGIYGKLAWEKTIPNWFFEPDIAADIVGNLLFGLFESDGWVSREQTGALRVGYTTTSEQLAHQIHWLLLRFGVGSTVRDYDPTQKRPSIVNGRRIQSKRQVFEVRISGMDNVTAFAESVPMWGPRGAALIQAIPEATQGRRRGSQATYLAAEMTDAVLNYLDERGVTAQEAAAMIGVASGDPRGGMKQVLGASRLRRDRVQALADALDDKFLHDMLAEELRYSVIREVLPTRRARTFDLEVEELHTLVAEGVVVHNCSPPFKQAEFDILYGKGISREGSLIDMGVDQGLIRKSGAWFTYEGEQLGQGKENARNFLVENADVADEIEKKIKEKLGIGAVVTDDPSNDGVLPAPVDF
# Arbovirus anti repeat: further read-out of Arbovirus anti, marked with its call; inhibition, %; measured here: 10K subset replicate screen; many hits read low in the repeat;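 first of two repeat runs on a subset; 0% = infected and 100% = uninfected wells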
# * = called active by the depositor; u = inconclusive; x = no result given.
SMILES,YopH PTP inh,Mtb H37Rv,Mtb bLac sens,Arbovirus anti,RecA splice inh,others
O=C(O)COc1ccccc1/C=N/NC(=O)c1ccc(F)cc1,x,-6.9%,-2.0,4.2,-0.3,
O=C(c1c(F)cccc1F)N1CCN(c2ccccc2F)CC1,-44.6,0.6%,-0.9,-8.1,-0.5,
OC(COc1ccccc1)CN1CCCC1 (stereo unspecified),x,-1.2%,-8.2,1.7,-1.8,
[O-][N+]12CCN(CC1)c1ccccc12,-7.4,5.5%,-4.7,9.4,0.6,
OCCCNC(=S)Nc1ccc2nc(-c3ccccn3)c(-c3ccccn3)nc2c1,-1.7,-0.1%,6.6,8.2,-122.2,
O=C(OCC(=O)N1CCOCC1)c1ccc(F)cc1Cl,x,x,7.8,x,-0.9,
O=C(NCSc1ccnc(SCNC(=O)c2ccccc2)n1)c1ccccc1,-9.8,-10.3%,-2.9,-4.0,0.5,
Cc1ccccc1OCC(=O)NCCc1nc2ccccc2[nH]1,-29.1,-10.7%,5.3,-2.0,1.4,
COc1ccc(N2C(=S)N=C(Nc3ccccc3)C23CCCCC3)cc1,x,x,-1.5,3.7,-1.3,
NNC(=O)c1c(O)c2cccc3c2n(c1=O)CCC3,x,x,69.2,x,5.1,
O=C(Nc1ccc(F)cc1)Oc1ccc[nH]c1=O,x,-3.0%,5.7,x,-4.4,
C/C(=N/Nc1ccc(C(=O)O)cc1)c1ccc(O)c(O)c1O,42.7,8.1%,9.2,2.4,-7.5,
CCOc1ccc(Oc2nc(Nc3ccc(C)cc3)nc(N(C)C)n2)nn1,-11.4,9.8%,7.9,0.8,2.1,
Cn1cc([N+](=O)[O-])c(C(=O)N/N=C/c2ccc3c(c2)OCO3)n1,x,-1.0%,7.8,0.6,-5.6,
O=C(OCCNc1ccc(C(F)(F)F)cc1[N+](=O)[O-])c1cc2ccccc2oc1=O,x,2.6%,22.3,x,-4.9,

# Three compounds picked at random from the list so far:
SMILES,YopH PTP inh,Mtb H37Rv,Mtb bLac sens,Arbovirus anti,RecA splice inh,others
Cn1cc([N+](=O)[O-])c(C(=O)N/N=C/c2ccc3c(c2)OCO3)n1,x,-1.0%,7.8,0.6,-5.6,
O=C(O)COc1ccccc1/C=N/NC(=O)c1ccc(F)cc1,x,-6.9%,-2.0,4.2,-0.3,
OCCCNC(=S)Nc1ccc2nc(-c3ccccn3)c(-c3ccccn3)nc2c1,-1.7,-0.1%,6.6,8.2,-122.2,

# Back to the main list; the 5 compounds before the break are reprinted first.
SMILES,YopH PTP inh,Mtb H37Rv,Mtb bLac sens,Arbovirus anti,RecA splice inh,others
O=C(Nc1ccc(F)cc1)Oc1ccc[nH]c1=O,x,-3.0%,5.7,x,-4.4,
C/C(=N/Nc1ccc(C(=O)O)cc1)c1ccc(O)c(O)c1O,42.7,8.1%,9.2,2.4,-7.5,
CCOc1ccc(Oc2nc(Nc3ccc(C)cc3)nc(N(C)C)n2)nn1,-11.4,9.8%,7.9,0.8,2.1,
Cn1cc([N+](=O)[O-])c(C(=O)N/N=C/c2ccc3c(c2)OCO3)n1,x,-1.0%,7.8,0.6,-5.6,
O=C(OCCNc1ccc(C(F)(F)F)cc1[N+](=O)[O-])c1cc2ccccc2oc1=O,x,2.6%,22.3,x,-4.9,
Cc1ccc(S(=O)(=O)Nc2ccc(C(=O)NCc3ccccn3)cc2)cc1,x,x,5.3,x,-0.6,
COc1ccc(OC)c(-c2nn(-c3ccccc3)cc2C(=O)NCC2CCCO2)c1 (stereo unspecified),x,x,-4.8,x,1.0,
CC(=O)OC(c1nc2ccccc2c(=O)n1C1CC2(OC1=O)c1ccccc1N1C(=O)C(C)(C)N(O)C12)C(C)C (stereo unspecified),x,13.3%,-2.6,x,4.3,
OC[C@@H](O)[C@@H](O[C@H]1O[C@H](CO)[C@@H](O)[C@H](O)[C@H]1O)[C@H](O)[C@@H](O)CO,x,2.4%,-1.7,-2.0,2.1,
Cc1sc2ncnc(Nc3ccc(N4CCOCC4)cc3)c2c1-c1ccccc1,-19.9,20.8%,34.6,-16.7,10.6,
Cc1ccccc1C(=O)Nc1sc2c(c1C(=O)O)CCC2,x,-18.8%,-1.3,18.4,-8.3,
CS/C(=N\S(=O)(=O)c1cccs1)Nc1ccc(F)c(Cl)c1,-35.1,73.1%,-4.6,2.1,4.5,
Cc1ccc(NC(=O)CNC(=O)c2sc3ccccc3c2Cl)nc1,x,x,-7.2,x,1.4,
O=C(CSc1n[nH]c(=O)[nH]c1=O)NC1CCCCC1,x,-1.9%,-2.0,x,4.2,
Cc1ccc(NC(=O)CS(=O)(=O)c2c[nH]c3ccccc23)c(C)c1,-2.0,0.6%,1.8,2.8,1.9,
CC(=O)n1cc([C@@H]2C=C(C(=O)Nc3ccccc3)O[C@H](OCc3ccc(CO)cc3)C2)c2ccccc21,x,1.6%,-1.2,-6.1,2.7,
CC(/C=N/O)Cc1ccc2c(c1)OCO2 (stereo unspecified),4.6,-3.2%,4.2,9.0,-0.3,
Cc1nnc(SC(C)C(=O)Nc2ccc3ccccc3c2)[nH]c1=O (stereo unspecified),x,x,89.9,x,3.1,
COc1ccc(OC)c(NS(=O)(=O)c2ccc(Br)s2)c1,x,3.4%,-5.0,-11.9,1.5,
CC(Sc1nnc(N)s1)c1ccccc1Cl (stereo unspecified),-0.4,4.6%,u,-15.8,1.3,
COc1ccc(NC(=O)CN(C)C(=O)Cn2cnc3c2c(=O)n(C)c(=O)n3C)cc1,x,x,-8.3,x,-0.4,
COc1cc2c(cc1OC)C(=O)CC(C)S2 (stereo unspecified),-50.6,3.0%,-3.9,7.3,-13.4,
Cc1ccc(SCc2cc(-c3ccc(Cl)cc3)on2)cc1,-26.3,4.6%,-12.1,2.5,-3.2,
C=CCOCCN(C)C1=NS(=O)(=O)c2cc([N+](=O)[O-])ccc21,x,0.2%,3.1,-1.6,-4.9,
COc1ccccc1CN1CC(C(=O)NCCC2=CCCCC2)CCC1=O (stereo unspecified),x,x,2.5,x,0.6,
O=C(c1cccnc1)N1CCN(Cc2ccc3c(c2)OCO3)CC1,7.0,4.2%,-0.9,2.4,-3.9,
Cc1ccc(S(=O)(=O)NC2(C(F)(F)F)NC(=O)N(C)C2=O)cc1 (stereo unspecified),-19.9,-2.3%,-3.5,1.4,0.6,
CC1CCN(CC(=O)Nc2nc(-c3ccccc3)cs2)CC1,x,x,77.7,x,1.8,
Cc1ccc(S(=O)(=O)N2CCN(C(C)C(=O)Nc3ccccc3-c3ccccc3)CC2)cc1 (stereo unspecified),-39.8,-1.3%,-2.7,13.3,-1.3,
Nn1cc(-c2ccccc2)nc1SCC(=O)N1CCN(S(=O)(=O)c2ccc3ccccc3c2)CC1,9.6,1.5%,-2.2,3.6,-1.8,
COc1ccc(-c2nc(C#N)c(NC(C)c3ccccc3)o2)cc1OC (stereo unspecified),-6.8,x,68.7,-2.5,10.2,
O=C(O)Cn1cc(CN2CCOCC2)c2ccccc21,x,x,-3.2,x,6.7,
COc1ccc2[nH]cc(CCNC(=O)Cc3ccc(F)cc3)c2c1,x,x,3.4,x,0.7,
CC(C)(C)NC(=O)C(c1ccccn1)N(C(=O)c1csnn1)C1CCCCC1 (stereo unspecified),x,-0.4%,-7.4,4.8,0.4,
COCC(C)n1c(C)cc(C(=O)COC(=O)c2c(C)nn(-c3ccccc3)c2C)c1C (stereo unspecified),-46.5,6.8%,57.7,0.8,7.2,
Cn1ccc(-c2ccccc2)c(C#N)c1=O,x,4.8%,-4.1,0.1,1.1,
CCCCNC(=O)Cn1cnc2c(cnn2-c2ccc(C)cc2)c1=O,x,x,2.5,x,0.6,
O=S(=O)(c1ccccc1)N1CCCCC1c1cccnc1 (stereo unspecified),0.4,-3.2%,7.2,8.9,-0.4,
COc1cccc(Nc2nc(CN3CCOCC3)nc3sc4c(c23)CCCC4)c1,-4.5,1.1%,13.5,-16.4,4.7,
CC1(C(=O)OCC(=O)c2c[nH]c3ccccc23)CC1(Cl)Cl (stereo unspecified),-12.9,x,-6.4,-11.8,4.7,
Cc1ccc2nc(SCC(=O)NC3CCCc4ccccc43)[nH]c2c1 (stereo unspecified),1.8,x,1.2,-7.0,-2.0,
Cc1cc(S(=O)(=O)N2CCC(N3CCCCC3)CC2)ccc1-n1cnnn1,-15.3,2.1%,0.8,3.9,0.0,
O=c1[nH]c(N2CCOCC2)nc2c1CCCC2,-7.2,-3.5%,-2.6,-3.4,-1.0,
CCc1nnc(NC(=O)C2CCCN2C(=O)Nc2ccccc2)s1 (stereo unspecified),x,-0.8%,-1.0,4.0,-0.2,
C=CCNC(=O)c1sc(=S)n(-c2ccc(C(=O)OCC)cc2)c1N,-12.7,5.1%,14.3,3.3,-6.4,
CCCc1cc(=O)n2[nH]cnc2n1,-20.0,-7.3%,-13.8,5.5,4.0,
CN1CCc2nc3ccc(F)cc3c(C(N)=O)c2C1,-39.0,-5.6%,-19.6,6.5,1.9,
COc1ccc(C(NC(=O)CN2CCCCCC2)c2ccc(OC)cc2)cc1,x,x,-8.4,x,1.1,
O=C(O)CC/C(=N\Nc1ccc(S(=O)(=O)N2CCOCC2)cc1[N+](=O)[O-])c1cccs1,x,2.7%,2.1,x,3.4,
CCCc1nn(C)c(C(=O)Nc2cccc(CC)c2)c1Cl,-6.5,29.8%,17.4,-7.3,9.1,

# Filtered by structure: the compounds so far with a CF3 group.
SMILES,YopH PTP inh,Mtb H37Rv,Mtb bLac sens,Arbovirus anti,RecA splice inh,others
O=C(OCCNc1ccc(C(F)(F)F)cc1[N+](=O)[O-])c1cc2ccccc2oc1=O,x,2.6%,22.3,x,-4.9,
Cc1ccc(S(=O)(=O)NC2(C(F)(F)F)NC(=O)N(C)C2=O)cc1 (stereo unspecified),-19.9,-2.3%,-3.5,1.4,0.6,

# Later entries:
SMILES,YopH PTP inh,Mtb H37Rv,Mtb bLac sens,Arbovirus anti,RecA splice inh,others
Cc1ccc(C(=O)NCC(=O)Nc2cccc(C(F)(F)F)c2)cc1,-32.3,12.5%,-0.7,-8.8,-2.0,
Cc1onc(-c2c(Cl)cccc2Cl)c1C(N)=S,x,-4.2%,0.8,0.5,1.0,
Cc1ccc(S(=O)(=O)NN2C(=O)c3ccccc3NC2c2cccc(O)c2)cc1 (stereo unspecified),x,-5.7%,-6.8,19.5,-1.1,
O=C(CSc1ccccn1)c1ccc2c(c1)OCO2,-53.7,-5.7%,1.7,-4.7,1.1,Arbovirus anti repeat=-2.1
O=C(COc1ccc(Br)cc1)N(Cc1ccccc1)c1ccccn1,-16.5,-0.9%,8.2,-6.6,1.1,
Cc1nc(NC(CC(C)C)C(=O)O)c2nc(C)oc2n1 (stereo unspecified),-28.1,-6.8%,-10.8,3.1,-0.2,
CC(=O)c1c(C)c[nH]c1C,16.2,-8.4%,-7.4,7.4,0.7,
CC(=O)[C@@H]1[C@@H]2C(=O)N(C3CCCCC3)C(=O)[C@@H]2C2c3ccccc3C=CN21 (stereo partly specified),6.4,-3.0%,15.6,2.3,x,
O=C(O)c1ccc(COc2ccccc2Cl)cc1,-42.8,6.9%,6.5,-0.6,0.2,
CN(C)/N=C/c1ccc(OS(=O)(=O)c2ccccc2)cc1,x,2.2%,1.8,-11.2,14.8,
Cc1cccc(NC(=O)Nc2ccc(Cl)c(Cl)c2)n1,x,x,4.4,x,1.8,
COc1ccc(-n2cc(CNCCCn3ccnc3)c(-c3cccc(F)c3)n2)cc1,x,10.9%,83.1,-32.6,-0.1,
O=C(N[C@@H](CO)C(=O)NCc1ccccc1)c1ccc(C(F)(F)F)cc1,x,x,-4.8,x,-2.7,
CN1CCN(Cc2c(C(=O)N/N=C/c3cccc(Br)c3)nnn2-c2nonc2N)CC1,x,x,3.1,x,-2.4,
Cc1cc(/C=C2\SC(N)=NC2=O)c(C)n1-c1ccccc1,-31.1,x,-13.9,2.3,-3.7,
CCN1CCN(CC(=O)c2cc(OC)c(OC)c(OC)c2)CC1,x,-0.1%,-1.9,6.6,-3.5,

# A portion of the library; count on the stated rates, not on these rows.
